# Screening data as filed in PubChem.
# CtBP-E1A blk = qHTS Assay for Inhibitors of the CtBP/E1A Interaction; 340,000 tested, 0.49% active; CtBP / adenovirus E1A interaction (AlphaScreen); AlphaScreen GST-E1A/His-CtBP binding, 1536-well; stronger effect = lower value; control for the full effect not named in the record; activity change, % (no concentration beside the values); AID 651724, 2012; in the data active means activity change below about -65%; inconclusive means about -30% to -65%; inactive means above about -30%; further: on the % scale 0 is the no-effect control and ±100 the full control effect; compound concentration not given in the record
#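 In 5 uL wells, 23 nL compound meets equimolar GST-E1A and His-CtBP (5X stock 125 nM each) for 2 h, 37 °C. Beads (5X, 50 ug/mL) then 1 h, 37 °C, dark.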
# D2 agonist = Beta-Arrestin HTS for Positive Allosteric Modulators of the Human D2 Dopamine Receptor: Agonists. activation, % (test concentration not listed). 360,000 tested, 0.084% active. DiscoveRx PathHunter D2 beta-arrestin, luminescence, 90 min; 100% = 57 uM dopamine signal; in the data active = activation above about 40%; inconclusive = about 15% to 40%; inactive = below about 15%; further: compound concentration not given in the record; the text of the record calls up to 30% inactive
# Target sequence (P14416 whole entry, looked up): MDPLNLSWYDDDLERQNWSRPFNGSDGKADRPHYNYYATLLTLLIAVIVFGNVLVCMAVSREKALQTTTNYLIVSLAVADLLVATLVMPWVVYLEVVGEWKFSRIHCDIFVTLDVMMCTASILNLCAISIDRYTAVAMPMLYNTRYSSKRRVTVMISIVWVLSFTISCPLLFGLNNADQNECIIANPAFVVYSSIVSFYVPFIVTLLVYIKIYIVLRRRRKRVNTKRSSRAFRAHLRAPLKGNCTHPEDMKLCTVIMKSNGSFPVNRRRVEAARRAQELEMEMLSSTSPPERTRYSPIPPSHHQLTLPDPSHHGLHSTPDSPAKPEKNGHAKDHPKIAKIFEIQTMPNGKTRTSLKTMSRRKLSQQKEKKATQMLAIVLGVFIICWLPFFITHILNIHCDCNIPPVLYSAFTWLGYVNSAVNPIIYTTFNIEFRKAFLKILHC
#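 DiscoveRx PathHunter D2 beta-arrestin cells (2,100/well) attached overnight, then compound-stimulated 90 min at 37 C in HBSS/10 mM HEPES/0.1% Tween-20 buffer; beta-galactosidase complementation read by luminescence after 1 h at ambient temperature. Dopamine 57 uM final (EC100) as control.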
# PINK1 expr mod = A Quantitative High throughput Screen to Identify Chemical Modulators of PINK1 Expression; PINK1 immunofluorescence, high-content cytometry, 24 h; Potency, µM (titrated, usually from 76.6 µM), for the others: at the top dose activation (PINK1 increase), usual class: activators; 410,000 tested, 0.2% active; AID 624263, 2012; active = well fitted activation curve with a large enough effect; inconclusive = small, poorly fitted or top-dose-only effect; inactive = flat fitted curve, though single readings scatter; cell line not stated here;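 further: potency means the concentration at half of the fitted maximal effect; % of control where 0% means no effect; nearly all actives have a fitted effect of over 65% in size; a mitochondrial uncoupler was the plate control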
#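 Compound titrations (5 concentrations, 24 h) on a stable cell line; DMSO and CCCP controls. Endpoint: fixed-cell PINK1 immunofluorescence with mitochondrial, cell and nuclear markers, scanned by microplate cytometer.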
# Six1-Eya2 inh = qHTS Assay for Inhibitors of the Six1/Eya2 Interaction; Homeobox protein SIX1 (Homo sapiens) + Protein phosphatase EYA2 (Homo sapiens), …; AlphaScreen GST-Six1/His-Eya2 binding, biochemical; stronger effect = lower value; control for the full effect not named in the record; activity change, % (test concentration not listed); 360,000 tested, 0.56% active; in the data active = activity change below about -65%; inconclusive = about -30% to -65%; inactive = above about -30%; further: on the % scale 0 is the no-effect control and ±100 the full control effect; compound concentration not given in the record
#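 Homogeneous AlphaScreen proximity assay pairing GST-Six1 with His-tagged Eya2 (added as 5X mix: 250 nM and 500 nM) in 50 mM Tris pH 8.0, 300 mM NaCl, 1 mM TCEP. Glutathione donor and nickel acceptor beads; 1 h, 37 °C, dark.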
# D2 PAM = Beta-Arrestin HTS for Positive Allosteric Modulators of the Human D2 Dopamine Receptor: Potentiators. D(2) dopamine receptor (Homo sapiens), P14416. DiscoveRx D2 beta-arrestin cells, luminescence, 90 min; 100% = 57 uM dopamine signal. potentiation, % (concentration not given with the values). 360,000 tested, 0.23% active. AID 624464, 2012; active = potentiation of 50% or more; inconclusive = 30% to 50%; inactive = 30% or less;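 further: compound concentration not given in the record; tested on top of an EC20 dose of dopamine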
#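 D2 cells co-treated with compound plus 50 nM dopamine (EC20) for 90 min at 37 deg C to detect potentiation. Beta-arrestin recruitment was read as enzyme-fragment luminescence after 1 h at ambient temperature. Full response was set by 57 uM dopamine.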
# Sfp PPTase inh = qHTS Assay for Inhibitors of Bacillus subtilis Sfp phosphopantetheinyl transferase (PPTase) | 4'-phosphopantetheinyl transferase ffp (Bacillus subtilis), Q9F4F7 | Biochemical Sfp PPTase activity, qHTS | Potency, µM, inactives show max response, negative = inhibition, usual class: inhibitors | 310,000 tested, 3.5% active; active means well fitted inhibition curve with a large enough effect; inconclusive means small, poorly fitted or top-dose-only effect, or another doubt; inactive means no such curve, though single readings can be large or run the other way;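 further: the enzyme is Sfp with the accession as filed and its product quenches rhodamine fluorescence; potency means the concentration at half of the fitted maximal effect; 0% = enzyme reaction without inhibitor and -100% = no enzyme wells; top concentration of the series not given in the record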
#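 Fluorescence-quenching assay: 15 nM Sfp-PPTase preincubated 15 min at room temperature with compound, then 5 uM rhodamine-CoA and 12.5 uM BHQ-2-labelled YbbR peptide added. Fluorescence (ex 525/em 598 nm) read at start and after 30 min; difference gives rate.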
# TRPV1 PAM = HTS Assay for Compounds that Act as Potentiators of the Vanilloid Receptor 1; Transient receptor potential cation channel subfamily V member 1 (Homo sapiens), Q8NER1; TRPV1-expressing cells, Fluo-8 calcium influx, capsaicin EC20 potentiation; host cell line not named in the record; control for the full effect not named in the record; potentiation, % at 8.33 µM; 320,000 tested, 0.02% active; active means potentiation above 80%; inconclusive means 30% to 80%; inactive means below 30%; further: 0% is about no effect
#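 Cells expressing TRPV1 were dye-loaded with Fluo-8 and read kinetically: 10 s baseline, 3 min after compound (agonist portion), then 2 min after EC20 capsaicin (allosteric enhancer portion). Calcium-bound dye fluorescence at 480/520 nm.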
# The depositor's hits bear a star; ? = inconclusive; · = no result given; & = joins results of further samples; [ ] = remark or other dose.
SMILES,CtBP-E1A blk,D2 agonist,PINK1 expr mod,Six1-Eya2 inh,D2 PAM,Sfp PPTase inh,TRPV1 PAM
CCN(CC)CCN=Cc1c(O)n(CCC2=CCCCC2)c(=O)[nH]c1=O,10,-3.3,1.9%,1,12,11%,-14
COCCOC(=O)c1c(N)n(Cc2ccc(OC)cc2)c2nc3ccccc3nc12,8,-2.2,1.7%,-1,-5,-2%,-5
Cc1c(N=Cc2c(O)n(Cc3ccccc3)c(=O)[nH]c2=O)c(=O)n(-c2ccccc2)n1C,-8,-5.5,0.5%,-12,-12,8%,-6
CSc1cccc(NP2(=O)OCC(C)([N+](=O)[O-])CO2)c1 (configuration not stated),-15,-0.2,-4.7%,3,-13,·,·
CN1CCN(/N=C/c2c[nH]c3ccccc23)CC1,14,-0.8,1.7%,0,-35,31%[activator],-1
COc1ccc(NC(=S)NC(NC(=O)CF)C(Cl)(Cl)Cl)c([N+](=O)[O-])c1 (configuration not stated),7,-1.2,1.2%,-23,-14,-6%,8
O=C1c2ccccc2C(=O)N1Cc1nc2ccccc2c(=O)n1-c1ccccn1,5,1.9,0.9%,27,2,-3%,-4
O=c1c2cc(Cl)cc(Cl)c2nc(CN2CCOCC2)n1-c1ccccc1F,2,-3.4,-2.6%,1,-11,-15%,-1
Cc1ccc(-n2c(O)c(/C=N/Nc3ccccc3)c(=O)[nH]c2=O)cc1C,0,-7.4,5.2%,-11,-14,-8%,-7
O=C1NCN(c2ccccc2)C12CCN(C(c1nnnn1-c1ccc3c(c1)OCCO3)C1CC1)CC2 (configuration not stated),-11,-5.9,0.3%,-18,-15,·,·
CCCCn1c(O)c(C=Nc2c(C)n(C)n(-c3ccccc3)c2=O)c(=O)[nH]c1=O,-4,0.6,-0.3%,8,-6,7%,-5
C=CCN1C(=O)NC(=O)/C(=C/c2ccc(OCC(=O)Nc3ccc(C)cc3)cc2)C1=O,-3,3.9,0.5%,-4,-2,35µM*,-20
OC1/C(=C/c2ccc(Cl)cc2Cl)N2CCC1CC2 (configuration not stated),-7,-1.8,2.8%,-16,-23,-11%,-5
O=c1[nH]c(=O)n(CCc2ccc(F)cc2)c(O)c1C=NCCCN1CCOCC1,1,1.1,-0.2%,8,-1,15%,4
CC(C)Nc1nc(Cl)nc(NC(C)C)n1,0,-0.6,0.4%&1.6%,6,-4,-9%&9%,0
Cc1cc(C)n2nc(SCC(=O)N3CCC4(CC3)OCCO4)nc2n1,-6,-0.8,-3.2%[38.3 µM],-3,-2,15%,-5
CC/C(=N\NC(=O)c1ccccc1Cl)c1c(O)n(C2CCCCC2)c(=O)[nH]c1=O,·,4.3,1.0%,4,-3,15%,1
Cc1ccc(-c2cc(-c3ccccc3)cc(-c3ccccc3)[n+]2-c2ccccc2C(=O)O)cc1,-1,-1.6,?,-1,-8,·,-13
COc1cc2[nH]c(=O)n(-c3ccccc3)c(=O)c2cc1OC,-3,-1.0,0.7%,-3,-9,22%,5
CC(C)CCC1(CN2CCCC2=O)C(=O)NC(=O)NC1=O,-3,-2.0,-0.6%,13,-4,21%,4
O[C@H]1[C@H](O)[C@@H](O)CN2CC[C@H](O)[C@H]12,3,-2.4,-0.4%,-1,-20,18%&21%&10%,7
COC(=O)C1=C(c2ccc3ccccc3c2)C[C@@H]2CC[C@H]1N2C(=O)NCc1ccco1,-6,-1.6,1.7%,-13,-20,·,-1
Oc1ccc(Cl)cc1Cc1ccccc1,-2,-0.9,11%,-1,-3,11%,·
O=C(Oc1ccc2ccc(OC(=O)N3CCCCCC3)cc2c1)N1CCCCCC1,8,-2.5,?,0,0,-2%,-16
CCOC(=O)[C@]12Cc3cc(OC)ccc3[C@H]1N(C(C)C)C(=O)c1ccccc12,-2,·,?,-3,·,·,·
O=C(NC1CCCCC1)N1Cc2cc(-c3ccccc3)ccc2-n2nncc2C1,0,-2.1,-0.7%,-4,2,·,·
CC1CCCCN1Cc1c[nH]c2ccccc12 (configuration not stated),5,-1.4,3.8%,-3,-6,-8%,9
O=C(c1ccc(Br)cc1)C12CN3CN(CN(C3)C1)C2,2,-0.9,-0.2%,9,-1,17%,4
CN1C(=O)N(C)C(=O)C2(Cc3c(ccc4ccccc34)N(C)C2)C1=O,-8,5.0,-0.9%,1,·,-25%,9
CC1(C)CN=C(Nc2ccc(F)c(F)c2)S1,7,-4.1,10.0%,1,-8,18%,-12
CC(C)C(=O)NC(Oc1ccccc1Cl)C(Cl)(Cl)Cl (configuration not stated),-10,-0.7,-1.0%,-16,3,19%,27
CCOc1cc(C2NCc3ccccc3-n3cccc32)ccc1O (configuration not stated),0,-3.3,0.8%,-12,-39,15%,10
OC(CN1CC=C(c2ccccc2)CC1)c1ccccc1 (configuration not stated),2,2.7,1.5%,-1,-11,-11%,1
C=CCN1C(=O)NC(=O)C(Cc2ccc(OC)c(OC)c2)C1=O (configuration not stated),-6,-2.4,-0.5%,-14,-4,?,-14
CCc1cc(=O)oc2cc(OCC(=O)N3C[C@H]4C[C@@H](C3)c3cccc(=O)n3C4)c(Cl)cc12,-1,-2.0,0.0%,-1,-21,7%,8
CC(C)OC(=O)c1c(N)n(Cc2ccco2)c2nc3ccccc3nc12,?,-1.7,7.6%,?,-2,50µM*,1
CCn1c(O)c(C=NCCN2CCOCC2)c(=O)[nH]c1=S,2,-1.9,-0.3%,4,-10,11%,23
COc1ccccc1/C=C1\C(=O)NC(=S)N(c2ccccc2)C1=O,-3,1.8,1.2%,-3,0,45µM*,5
O=c1[nH]c(=O)n(-c2cccc3ccccc23)c(O)c1/C=N/N1CCCCCC1,-4,-4.0,1.6%,-1,-7,17%,3
COC(=O)C1=C(c2ccccc2OCc2ccccc2)C[C@@H]2CC[C@H]1N2C(=O)NCc1ccc(Br)cc1,-3,-2.2,-0.7%,-6,-14,·,-3
NNCc1ccccc1,3,-4.0,0.3%,10,0,-7%,·
CN(C)C(=O)Oc1ccc(Cl)c2ccccc12,7,-6.8,0.7%,1,-11,-6%,-16
Cc1c(O)c(=O)ccn1C,-2,-1.2,-0.6%,-12,6,56µM*,-5&-2
CN(CCc1ccccn1)Cc1ccc(Cl)cc1,1,-1.2,0.1%[38.3 µM],2,-15,?,-10
CC(C)OCCCNC(=O)c1c(N)n(CC2CCCO2)c2nc3ccccc3nc12 (configuration not stated),50,-1.2,-1.6%[38.3 µM],32,-11,-11%,5
O=C(c1ccc2nc3ccc(Cl)cc3c(=O)n2c1)N1CCC2(CC1)OCCO2,7,·,-2.4%[38.3 µM],1,-12,·,·
CCC(CC)C(=O)NC1CCSC1=O (configuration not stated),4,-6.1,-1.2%,3,6,7%,0
N/C(=N\[N+](=O)[O-])N1CCN(C(=O)OC2CCCC2)CC1,·,-4.8,1.1%,5,-12,14%,-2

# Three compounds from above, arranged by number of heavy atoms, smallest number first:
SMILES,CtBP-E1A blk,D2 agonist,PINK1 expr mod,Six1-Eya2 inh,D2 PAM,Sfp PPTase inh,TRPV1 PAM
CN(CCc1ccccn1)Cc1ccc(Cl)cc1,1,-1.2,0.1%[38.3 µM],2,-15,?,-10
CN1C(=O)N(C)C(=O)C2(Cc3c(ccc4ccccc34)N(C)C2)C1=O,-8,5.0,-0.9%,1,·,-25%,9
CCN(CC)CCN=Cc1c(O)n(CCC2=CCCCC2)c(=O)[nH]c1=O,10,-3.3,1.9%,1,12,11%,-14

# Next results follow.
SMILES,CtBP-E1A blk,D2 agonist,PINK1 expr mod,Six1-Eya2 inh,D2 PAM,Sfp PPTase inh,TRPV1 PAM
COc1ccc(N2CCN(Cc3nc4ccccc4[nH]3)CC2)cc1,13,2.7,-1.5%,10,-8,16%,-5
Cc1c(C(=O)N2CCC3(CC2)OCCO3)sc2ncnc(N3CCc4ccccc4C3)c12,-1,3.4,0.9%,-9,-11,3%,-13
O=C1CNC(c2ccccc2Cl)c2cc(Br)ccc2N1 (configuration not stated),3,-0.1,0.8%,-12,-4,15%,-4
Cc1nc2cc([N+](=O)[O-])ccc2c(=O)n1-c1ccc(Br)cc1,·,4.2,0.0%,5,-1,14%,0
Cn1cc(C(=O)N2CCOCC2)c2ccccc21,11,-1.6,-0.5%,3,-8,19%,3
CC(C)(C)c1ccccc1O,0,-3.1,4.8%,3,-5,·,5
COC(=O)C1=C(c2ccc(OCc3ccccc3)cc2)C[C@@H]2CC[C@H]1N2C(=O)NCCc1ccc(F)cc1,0,-1.2,0.0%,-5,-8,·,·
CCOC(=O)[C@]1(C#N)[C@@H]2C=CC(C(N)=O)=CN2[C@@H](C(N)=O)[C@@H]1c1ccc(F)cc1,-2,-1.8,-1.4%,-2,5,?,-2
Cc1ccnc(-n2c(C)cc(C=C3C(=O)N(C)C(=S)N(C)C3=O)c2C)c1,-10,-1.5,-0.9%,-4,1,50µM*,5
COc1ccc(/C=C/C(=O)NC(=S)N2C[C@H]3C[C@H](C2)c2cccc(=O)n2C3)cc1,6,2.2,0.2%,10,-4,6%,-2
CCOC(=O)C1C(=O)NC2(C)CC1c1cc(OC)ccc1O2 (configuration not stated),8,-4.3,·,4,6,-2%,0
O=c1[nH]c(=S)n(-c2cccc(Cl)c2)c(O)c1C=NCCN1CCNCC1,-3,3.5,3.4%,1,5,1%,0
COc1ccc(CC(=O)N2C[C@H]3C[C@@H](C2)c2cccc(=O)n2C3)cc1,-15,-3.6,-0.2%,2,-16,12%,1
CN(C)C(=O)Oc1ccnc2cc(Cl)ccc12,2,1.2,-0.7%,8,-4,1%,3
O=C1C2CCCN2C(c2cccnc2)N1c1nccs1 (configuration not stated),-1,-11,-0.4%,-6,-1,-7%,8
Cc1cccc(NC(=O)Cn2cc(C(=O)C3CC3)c3ccccc32)c1C,1,-2.2,0.9%,4,-3,?,4
CCOC(=O)[C@]12Cc3cc(Cl)ccc3[C@H]1N(C(C)C)C(=O)c1ccccc12,-13,·,10%,11,·,·,·

# Only part of the results is shown; the hit share may differ from the screen's.
